Screens (PubChem)
TRPV1 PAM: HTS Assay for Compounds that Act as Potentiators of the Vanilloid Receptor 1; hit rate 0.02% among 320,000; TRPV1-expressing cells, Fluo-8 calcium influx, capsaicin EC20 potentiation; host cell line not named in the record; control for the full effect not named in the record; potentiation, % at 8.33 µM; Transient receptor potential cation channel subfamily V member 1 (Homo sapiens), Q8NER1; active means potentiation above 80%; inconclusive means 30% to 80%; inactive means below 30%; further: 0% is about no effect
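Cells expressing TRPV1 were dye-loaded with Fluo-8 and read kinetically: 10 s baseline, 3 min after compound (agonist portion), then 2 min after EC20 capsaicin (allosteric enhancer portion). Calcium-bound dye fluorescence at 480/520 nm.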
TRPML1 blocker: qHTS for Inhibitors of the Human Mucolipin Transient Receptor Potential 1 (TRPML1). Mucolipin-1 (Homo sapiens), Q9GZU1. AID 624415, 2012. TRPML1-inducible cells, Ca2+ dye fluorescence, FDSS; active compounds read low; inhibition of EC80 agonist-evoked calcium signal. hit rate 0.02% among 390,000. activity change, negative = inhibition, % (test concentration not listed); in the data active means activity change below about -50%; inconclusive means about -30% to -50%; inactive means above about -30%;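 further: stimulus is agonist 54-4 at its EC80 concentration; on the % scale 0 is the no-effect control and ±100 the full control effect; compound concentration not given in the record; the text of the record puts the active cut at -80%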
Target sequence (Q9GZU1 whole entry, looked up): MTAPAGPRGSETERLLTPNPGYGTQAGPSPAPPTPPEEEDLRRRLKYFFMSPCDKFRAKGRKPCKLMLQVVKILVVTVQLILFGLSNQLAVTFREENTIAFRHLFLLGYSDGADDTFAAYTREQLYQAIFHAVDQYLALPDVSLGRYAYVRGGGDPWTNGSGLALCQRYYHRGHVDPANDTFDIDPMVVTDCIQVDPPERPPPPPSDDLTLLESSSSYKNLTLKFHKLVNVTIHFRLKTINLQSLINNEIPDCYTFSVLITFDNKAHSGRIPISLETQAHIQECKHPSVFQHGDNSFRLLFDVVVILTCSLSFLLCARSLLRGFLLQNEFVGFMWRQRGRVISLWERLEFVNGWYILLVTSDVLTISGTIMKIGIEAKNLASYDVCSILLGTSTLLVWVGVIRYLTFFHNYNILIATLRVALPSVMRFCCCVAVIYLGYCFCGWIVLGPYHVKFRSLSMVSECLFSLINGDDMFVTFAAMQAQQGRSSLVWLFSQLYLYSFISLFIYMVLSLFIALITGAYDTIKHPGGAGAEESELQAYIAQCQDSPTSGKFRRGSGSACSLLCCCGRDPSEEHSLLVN
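Calcium fluorescence in TRPML1-DL cells induced overnight with Tet: a 110 s read after compound pin addition, then a 110 s antagonist read after challenge with 54-4 at 4 uM final (EC80).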
Menin MLL FP FL: qHTS Assay for Inhibitors Targeting the Menin-MLL Interaction in MLL Related Leukemias: Competition With Fluorescein Labeled MLL-derived Peptide | Fluorescence polarization, fluorescein-MLL peptide displacement from menin | FP activity change, % at 61.4 µM | 290,000 tested, under 10 active | AID 1766, 2009; inconclusive = falling polarisation curve, or a change in total fluorescence; inactive = total fluorescence flat and polarisation flat or rising; no compound was filed as active; the % refers to the polarisation; negative = inhibition;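 further: % of control where 0% means no effect; inhibitors lower the polarisation; unlabelled MLL peptide was the positive control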
PINK1 modulator: A Quantitative High throughput Screen to Identify Chemical Modulators of PINK1 Expression | hit rate 0.2% among 410,000 | PINK1 immunofluorescence, high-content cytometry, 24 h | Potency, µM (highest dose often 76.6 µM), for the others: at the highest dose activation (PINK1 increase), usual class: activators | AID 624263, 2012; active = well fitted activation curve with a large enough effect; inconclusive = small, poorly fitted or top-dose-only effect; inactive = flat fitted curve, though single readings scatter; cell line not stated here;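 further: potency means the concentration at half of the fitted maximal effect; % of control where 0% means no effect; nearly all actives have a fitted effect of over 65% in size; a mitochondrial uncoupler was the plate control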
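Decision-based qHTS: stable cells, 24 h exposure to five compound concentrations, CCCP as control. Fixed cells stained for PINK1 plus nuclear, mitochondrial and cell markers, cytometer read.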
Sfp PPTase inh: qHTS Assay for Inhibitors of Bacillus subtilis Sfp phosphopantetheinyl transferase (PPTase) | hit rate 3.5% among 310,000 | AID 1490, 2009 | Potency, µM, for inactives: max response, negative = inhibition, most hits filed as inhibitors | Biochemical Sfp PPTase activity, qHTS | 4'-phosphopantetheinyl transferase ffp (Bacillus subtilis), Q9F4F7; active means well fitted inhibition curve with a large enough effect; inconclusive means small, poorly fitted or top-dose-only effect, or another doubt; inactive means no such curve, though single readings can be large or run the other way;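 further: the enzyme is Sfp with the accession as filed and its product quenches rhodamine fluorescence; potency means the concentration at half of the fitted maximal effect; 0% = enzyme reaction without inhibitor and -100% = no enzyme wells; top concentration of the series not given in the record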
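Compounds were incubated with enzyme (final 15 nM) for 15 min at room temperature before substrate addition started the reaction. Fluorescence at 525 nm excitation, 598 nm emission was recorded immediately and after 30 minutes.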
TRPML1 ag: qHTS for Agonists of the Human Mucolipin Transient Receptor Potential 1 (TRPML1); Mucolipin-1 (Homo sapiens), Q9GZU1; activation, % (concentration not given with the values); TRPML1-expressing cells, Ca2+ dye fluorescence, FDSS; host cell line not named in the record; reference of the full effect not given here; hit rate 0.12% among 410,000; AID 624414, 2012; in the data active = activation above about 50%; inconclusive = about 30% to 50%; inactive = below about 30%; further: 0% is about no effect; the text of the record puts the active cut at 80%
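Calcium fluorescence on an FDSS kinetic reader gave the read-out. Tet-induced TRPML1-DL cells were plated overnight, dye-loaded (Ca8 with quencher, 45-90 min, room temperature, dark), then read 110 s after compound addition, and again 110 s after 4uM final 54-4 (EC80).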
ClpP mod: qHTS Assay for Activators of ClpP; purified B. subtilis ClpP, FRET peptide cleavage, 20 min; Potency, µM (top dose mostly 57.5 µM), for the others: at the top dose activity change, negative = active; hit rate 1.9% among 340,000; AID 651965, 2013; active = well fitted falling curve with a large enough effect; inconclusive = small, poorly fitted or top-dose-only effect; inactive = no such curve, though single readings can be large or run the other way; further: potency means the concentration at half of the fitted maximal effect; the source files actives as falling curves though it sought activators and does not explain the sign; nearly all actives have a fitted effect of over 65% in size; many hits overshoot -100%
Target sequence (P80244 whole entry, looked up): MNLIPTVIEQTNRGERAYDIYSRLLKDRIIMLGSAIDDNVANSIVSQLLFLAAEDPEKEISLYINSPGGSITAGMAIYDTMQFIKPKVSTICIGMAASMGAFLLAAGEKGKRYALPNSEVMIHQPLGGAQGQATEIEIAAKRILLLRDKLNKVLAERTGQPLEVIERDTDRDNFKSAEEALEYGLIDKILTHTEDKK
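Buffer: 100 mM Tris/HCl pH8, 100 mM KCl, 0.05% low protease BSA, 2.5% glycerol, 0.01% Tween-20. ClpP 10 microg/mL final; 20 min RT; delta FRET normalized to ADEP and DMSO controls.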
An asterisk follows results filed as active; ? = inconclusive; . = not tested or not shown; & = joins results of further samples; [ ] = remark or other dose.

Results follow in this order: TRPV1 PAM	Sfp PPTase inh	Menin MLL FP FL	TRPML1 ag	PINK1 modulator	TRPML1 blocker	ClpP mod
CC(C)(C)c1ccc(C(=O)OCCNC(=O)c2c(Cl)nc3ccccn23)cc1
→ 1	-23%	-0.2	4.9	-2.2%	-11	-2.0%
COc1cc(C)nc(N(C)S(=O)(=O)c2ccccc2Cl)n1
→ -4	13%	1.8	-0.3	-0.8%	-10	-1.1%
COc1cc2nc(C#N)nc(N)c2cc1OC
→ .	.	.	-0.7	0.2%	.	-1.3%
O=C1OC(NC(=O)c2ccccc2)C(N2CCOCC2)=C1Cl (configuration not stated)
→ 30	8%	1.9	-0.5	0.3%	2	0.5%
S=c1[nH]nc2ccccn12
→ .	.	.	-0.5	1.0%	-3	-4.6%
COc1ccc(NC(=O)CN(C)C(=O)c2cccc(S(=O)(=O)N3CCN(Cc4ccccc4)CC3)c2)cc1
→ -6	50µM*	.	0.7	0.9%	-15	-2.8%
COc1ccc(/C=C2\SC(=S)N(Cc3cccnc3)C2=O)cc1C
→ -7	-1%	-0.7	-0.4	17%	5	0.7%
Cc1ccc(C)c(OCC(=O)Nc2nc3ccc([N+](=O)[O-])cc3s2)c1C
→ 16	0%	-2.8	1.2	?	-4	1.4%
O=C(Cc1ccccc1)N/N=C/c1ccc2c(c1)OCO2
→ 4	-1%	-6.5	-0.7	12%	5	.
COc1cccc(-n2c(SCC(=O)c3c[nH]c4ccccc34)nc3ccccc3c2=O)c1
→ 24	17%	7.4	0.9	-0.6%	-14	2.2%
CC(C)OCCCNC(=O)c1ccc2c(c1)S(=O)(=O)c1ccccc1C2=O
→ 1	15%	.	2.0	0.8%	-2	0.8%
C[C@H](CO)N1C[C@H](C)[C@@H](CN(C)S(=O)(=O)c2ccccc2)Oc2ccc(NS(=O)(=O)c3cn(C)cn3)cc2C1=O
→ .	.	.	-0.2	-0.5%	0	-7.4%
Cc1cccc(-c2nc3ccccc3n3c(-c4ccccc4)c4c(=O)n(C)c(=O)n(C)c4c23)c1
→ .	.	.	-0.1	0.4%	-13	-4.2%
Cc1ccc2c(c1)cc(C(=O)NCc1ccccc1C)n2C
→ .	.	.	-1.1	0.7%	-11	?
CCCn1ccc2c(OCC(=O)Nc3ccc(OC)c(OC)c3)cccc2c1=O
→ .	.	.	0.6	0.8%	4	-3.3%
CCOc1ccc(CCNC(=O)C2CSC3(C)CCC(=O)N23)cc1OCC (configuration not stated)
→ 9	4%	.	0.7	0.6%	-3	-1.1%
CCOC(=O)N1CCN(C(=O)c2cc3c(s2)-c2c(C)cccc2OC3)CC1
→ -4	-11%	4.4	3.1	3.4%	23	4.0%
COc1cc(O)c(C(=O)O)c(CCc2ccccc2)c1
→ .	.	.	0.5	1.0%	-15	-2.5%
COc1cc(COc2ccc3c(C)c(CC(=O)O)c(=O)oc3c2C)cc(OC)c1OC
→ 19	5%	-10	1.5	-0.7%	21	3.7%
O=[N+]([O-])c1ccccc1S(=O)(=O)Nc1ccc(S(=O)(=O)N2CCCC2)cc1
→ .	.	.	1.3	-0.6%	6	-0.4%
Cc1ccc2nc3c(cc(C(=O)NC4CCS(=O)(=O)C4)n3Cc3ccccc3)c(=O)n2c1 (configuration not stated)
→ 2	-10%	-1.6	-1.2	1.2%	1	3.9%
Cn1c(CNS(=O)(=O)c2ccc(Cl)cc2)cc(=O)n(C)c1=O
→ 4	16%	-4.4	-0.4	0.1%	4	-2.3%
Cc1cccc(N=C2NC(=O)/C(=C3/C(=O)N(C)c4ccccc43)S2)c1C
→ -7	-14%	-0.7	2.6	1.4%	27	0.2%
O=C(Nc1ccc(F)cc1F)c1cc(-c2ccccc2O)no1
→ .	.	.	-0.9	2.8%	-11	-11%
CCc1nc(-n2[nH]c(=O)c3ccccc3c2=O)c2c3c(sc2n1)CCCC3
→ .	.	.	0.9	0.0%	11	0.9%
Cc1cc(-c2ccc(C)c(S(=O)(=O)Nc3ccccn3)c2)on1
→ .	.	.	0.7	-0.9%	-11	28µM*
Cc1ccc(CCNC(=O)c2cccc(NC3=NC4CS(=O)(=O)CC4S3)c2)cc1 (configuration not stated)
→ -17	-4%	10	-0.6	-0.3%	-14	2.4%
CCc1nnc(NC(=O)C2CCN(C(=O)c3ccco3)CC2)s1
→ 2	5%	2.9	-0.1	1.2%	-17	.
CCc1cccc(N(C)C(N)=Nc2cccc3ccccc23)c1
→ 0	?	-3.7&0.9	-0.3	1.4%	-5	-0.1%
COc1ccccc1OCCNC(=O)CN(c1cccc(C)c1)S(=O)(=O)c1ccccc1
→ -13	17%	.	0.5	-0.5%	6	0.8%
O=C(O)c1cccn1Cc1ccccc1F
→ 1	19%	1.9	3.2	0.2%[38.3 µM]	-9	1.2%
CCc1nnc(SCC(=O)N(C)c2ccccc2)c2cc3sccc3n12
→ .	.	.	0.9	-0.8%	-5	2.9%
Cc1ccnc(SCC(=O)Nc2oc(-c3ccccc3)c(-c3ccccc3)c2C#N)n1
→ 3	-7%	2.1	2.8	11%	4	-25%
COc1cccc(C=Nc2ccccc2C(=O)Nc2ccccc2)c1O
→ -5	-5%	4.8	0.0	-0.1%	-3	22µM*
CO/N=C(\N)c1nonc1N
→ -6	20%	-2.5	0.2	0.3%	-1	.
Cc1cc(Cl)ccc1OCC(=O)N/N=C/c1ccncc1
→ -16	1%	-2.4	0.0	4.1%	-14	.
O=C(C1=C[C@@H](c2ccccc2)C[C@@H](OCc2ccc(CO)cc2)O1)N1CCN(Cc2ccc3c(c2)OCO3)CC1
→ -19	9%	2.1	-0.1	0.5%	-2	2.9%
CC(=O)c1ccc(-n2nnnc2SCC(=O)Nc2sc(C)c(C)c2C#N)cc1
→ 5	50µM*	1.7	0.0	7.5%	0	2.2%
CCCS(=O)(=O)N1CCN(C(=O)c2cc(OC)cc(OC)c2)CC1
→ 29	5%	-2.4	1.3	3.8%[38.3 µM]	-10	-0.2%
COc1ccc(Cc2nnc(SCC(=O)NC3CCCCC3)n2C)cc1
→ 5	0%	6.5	-0.6	.	2	-0.1%
COc1ccc(Cl)cc1NC(=O)C(=O)N/N=C/c1cc(C)n(-c2ccc(C)cc2)c1C
→ -9	-6%	4.1	0.4	.	12	-6.6%
O=C(Nc1cc(S(=O)(=O)N2CCOCC2)ccc1N1CCOCC1)c1ccccc1[N+](=O)[O-]
→ .	.	.	0.0	0.3%	-5	-1.7%
CCOC(=O)Nc1sc(NS(=O)(=O)c2ccc(C)cc2)nc1C
→ 26	-16%	0.2	0.7	14%[38.3 µM]	-4	-1.2%
COC(=O)c1ccc(NC(=O)CSc2nnc(C3CC3)n2C)cc1
→ 2	6%	-0.8	0.2	-0.9%	3	.
Cc1ccc(S(=O)(=O)N2CCN(C(=O)COC(=O)Cc3ccc(F)cc3)CC2)c(C)c1
→ 0	.	.	0.7	3.2%	11	-1.1%
CCOc1ccc(N2C(=O)CC(NCCc3ccc(S(N)(=O)=O)cc3)C2=O)cc1 (configuration not stated)
→ 2	2%	2.7	-0.5	0.9%	7	0.2%
CC(C)(C)OC(=O)N1CCN(C(c2ccnc3ccccc23)c2nnnn2-c2ccc3c(c2)OCCO3)CC1 (configuration not stated)
→ .	.	.	-0.3	7.1%	.	-1.5%
CCNC(=O)/C(=C/c1ccco1)NC(=O)/C=C/c1ccccc1
→ ?	-97%	?	2.3	0.9%	-11	?
COc1ccc(NC(=O)CSC2=Nc3ccccc3C3=NC(CCC(=O)NCCc4ccccc4)C(=O)N23)c(OC)c1 (configuration not stated)
→ .	.	.	2.3	2.2%	10	-0.2%
CC(CCc1ccccc1)NC(=O)C1CCCN(C(=O)c2cc3sccc3n2C)C1 (configuration not stated)
→ 6	-12%	0.4	0.5	14%[38.3 µM]	-2	0.6%
COc1ccc(/C(C)=N/NC(=O)CNC(=O)c2cccnc2)cc1
→ 16	11%	8.3	-0.1	3.2%	-3	.
O=C(NC1CCCCC1)c1ccc(Cn2c(SCc3ccccc3)nc3cccnc32)cc1
→ .	.	.	-0.1	0.8%	-15	?
COCc1cc(C)n(CC(=O)Nc2c(C)cccc2C)c(=O)c1C#N
→ 3	22%	-6.4	-0.3	-0.6%	25	4.0%
COc1ccc(CCN2CC(C(=O)NCCc3ccccn3)CCC2=O)cc1 (configuration not stated)
→ 5	9%	0.2	-0.1	-1.7%	7	-0.8%
CN(C)C(=O)c1ccc(NC(=O)CN2C(=O)NC3(CCCc4ccccc43)C2=O)cc1 (configuration not stated)
→ -7	.	.	0.5	0.6%	0	-0.8%
C#CCOc1c(Cl)cc(/C=N/NC(N)=S)cc1OCC
→ 0	9%	2.0	-0.1	2.4%	2	-6.8%
COc1ccc(OC)c(C(=O)N/N=C/c2ccccn2)c1
→ 5	-9%	1.5	-0.2	-0.7%	-4	-4.2%
Cc1ccc(NC(=O)CSc2nnc3ccc4ccccc4n23)cc1
→ .	.	.	0.3	-0.1%	1	48%
CC(=O)c1cc(-c2ccc(F)cc2)n(CC(=O)NC2CCC(C)CC2)c1C (configuration not stated)
→ .	.	.	1.5	-0.9%	-14	-0.3%
CCOC(=O)[C@@H]1[C@H]2COc3cc(OC)ccc3[C@@H]2N2C(=O)N(c3ccc(C(F)(F)F)cc3)C(=O)[C@@]12C
→ -18	15%	0.4	-0.2	1.1%	-3	-1.4%
CC(C)(C)c1nnc(NC(=O)c2cccnc2Cl)s1
→ -2	9%	-0.7	1.0	-0.3%	-9	-0.1%
CC(Oc1ccccc1)C(=O)N1CCN=C1SCc1ccccc1F (configuration not stated)
→ .	2%	-0.7	1.5	-2.4%	-6	.
Cc1ccccc1CNC(=O)c1ccc2c(c1)c(C)c(C)n2C
→ .	.	.	2.3	-0.7%	15	-19%

Outcome played no part in choosing rows; about 4.4% have a hit in one of these screens.
